Menin-MLL FL inh: qHTS Assay for Inhibitors Targeting the Menin-MLL Interaction in MLL Related Leukemias: Competition With Fluorescein Labeled MLL-derived Peptide; 290,000 tested, under 10 active; AID 1766, 2009; Fluorescence polarization, fluorescein-MLL peptide displacement from menin; FP activity change, % at 61.4 µM; inconclusive = falling polarisation curve, or a change in total fluorescence; inactive = total fluorescence flat and polarisation flat or rising; no compound was filed as active; the % refers to the polarisation; negative = inhibition;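 note: % of control where 0% means no effect; inhibitors lower the polarisation; unlabelled MLL peptide was the positive control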
TRPV1 PAM: HTS Assay for Compounds that Act as Potentiators of the Vanilloid Receptor 1; Transient receptor potential cation channel subfamily V member 1 (Homo sapiens), Q8NER1; TRPV1-expressing cells, Fluo-8 calcium influx, capsaicin EC20 potentiation; host cell line not named in the record; control for the full effect not named in the record; potentiation, % at 8.33 µM; actives 0.02% (n = 320,000); AID 540277, 2011; active means potentiation above 80%; inconclusive means 30% to 80%; inactive means below 30%; note: 0% is about no effect
Target sequence (Q8NER1 whole entry, looked up): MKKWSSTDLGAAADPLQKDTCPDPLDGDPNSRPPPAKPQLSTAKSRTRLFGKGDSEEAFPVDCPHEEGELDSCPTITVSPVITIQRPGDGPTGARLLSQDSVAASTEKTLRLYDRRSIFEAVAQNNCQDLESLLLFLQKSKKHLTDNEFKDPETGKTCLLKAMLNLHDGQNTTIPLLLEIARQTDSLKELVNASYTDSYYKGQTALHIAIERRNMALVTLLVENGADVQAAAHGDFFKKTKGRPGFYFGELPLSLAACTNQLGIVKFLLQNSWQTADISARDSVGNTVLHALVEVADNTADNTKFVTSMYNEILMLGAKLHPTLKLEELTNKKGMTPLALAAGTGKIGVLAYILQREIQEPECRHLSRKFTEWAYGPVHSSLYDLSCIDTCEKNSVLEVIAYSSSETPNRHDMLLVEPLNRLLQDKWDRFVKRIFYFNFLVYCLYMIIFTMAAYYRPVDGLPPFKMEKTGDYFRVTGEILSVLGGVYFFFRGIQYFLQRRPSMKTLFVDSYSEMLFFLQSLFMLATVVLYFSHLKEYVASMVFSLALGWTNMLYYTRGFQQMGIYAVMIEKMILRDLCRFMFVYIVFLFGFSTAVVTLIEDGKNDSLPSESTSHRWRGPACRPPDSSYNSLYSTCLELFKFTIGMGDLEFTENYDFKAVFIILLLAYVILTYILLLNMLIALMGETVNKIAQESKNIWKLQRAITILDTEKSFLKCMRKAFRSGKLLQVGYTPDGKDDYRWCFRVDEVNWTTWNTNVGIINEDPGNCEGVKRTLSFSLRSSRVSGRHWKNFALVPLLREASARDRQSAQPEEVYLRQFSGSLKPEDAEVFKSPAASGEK
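TRPV1-expressing cells were cultured overnight at 35.5C and loaded with Fluo-8 calcium dye for 40 to 90 min at room temperature. After a 10 s baseline, compound was added and calcium influx was read kinetically for 3 min (ex 480/em 520 nm).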
TRPML1 blocker: qHTS for Inhibitors of the Human Mucolipin Transient Receptor Potential 1 (TRPML1); Mucolipin-1 (Homo sapiens), Q9GZU1; TRPML1-inducible cells, Ca2+ dye fluorescence, FDSS; active compounds read low; inhibition of EC80 agonist-evoked calcium signal; activity change, negative = inhibition, % (test concentration not listed); actives 0.02% (n = 390,000); AID 624415, 2012; in the data active means activity change below about -50%; inconclusive means about -30% to -50%; inactive means above about -30%;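 note: stimulus is agonist 54-4 at its EC80 concentration; % is set by controls: 0 for no effect and ±100 for the full control effect; compound concentration not given in the record; the text of the record puts the active cut at -80%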
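Tet-induced TRPML1-DL cells loaded with Ca8 no-wash calcium dye were read kinetically on FDSS. Compound addition was followed by EC80 agonist 54-4 (4 uM final); inhibition was read over 110 s.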
ClpP mod: qHTS Assay for Activators of ClpP; ATP-dependent Clp protease proteolytic subunit (Bacillus subtilis (strain 168)), P80244; purified B. subtilis ClpP, FRET peptide cleavage, 20 min; Potency, µM (top dose mostly 57.5 µM), without a hit: top-dose activity change, negative = active; actives 1.9% (n = 340,000); active = well fitted falling curve with a large enough effect; inconclusive = small, poorly fitted or top-dose-only effect; inactive = no such curve, though single readings can be large or run the other way; note: potency is the fitted concentration of half-maximal effect; the source files actives as falling curves though it sought activators and does not explain the sign; nearly all actives have a fitted effect of over 65% in size; many hits overshoot -100%
Target sequence (P80244 whole entry, looked up): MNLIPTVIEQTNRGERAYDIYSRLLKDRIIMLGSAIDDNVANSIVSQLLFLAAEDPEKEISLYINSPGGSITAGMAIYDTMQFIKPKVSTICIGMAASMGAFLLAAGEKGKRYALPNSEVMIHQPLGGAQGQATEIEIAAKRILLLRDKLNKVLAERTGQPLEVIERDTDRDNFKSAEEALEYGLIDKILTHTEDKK
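FRET quenching reversal measured ClpP activation: 10 microg/mL B. subtilis ClpP at pH 8 with the FRET-FV decapeptide, read at 430 nm after 320 nm excitation. The 20-min minus 0-min signal was scaled between DMSO/no-enzyme wells and ADEP (5.8 microM final).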
gsp antagonist: qHTS for Antagonists of gsp, the Etiologic Mutation Responsible for Fibrous Dysplasia/McCune-Albright Syndrome: qHTS; gsp-mutant cells, cAMP HTRF, 30 min; control for the full effect not named in the record; Potency, µM (series often up to 76.9 µM), without a hit: top-dose activity change, negative = inhibition, hits mostly inhibitors; actives 0.4% (n = 340,000); AID 624288, 2012; active = falling curve of any shape with a large fitted effect; inconclusive = falling curve, mostly with a smaller effect; inactive = flat or rising curve; cell line not stated here;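 note: intracellular cAMP measured with PDE inhibitor Ro 20-1724 present during compound exposure; potency is the fitted concentration of half-maximal effect; % is set by controls: 0 for no effect and ±100 for the full control effect; nearly all actives have a fitted effect of over 65% in size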
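HTRF cAMP measurement after 30 min RT detection following 30 min, 37C compound treatment alongside […] (added as 300 uM solution) in G418-selected cells seeded at 2000/well and grown 16–24 h.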
Sfp inh: qHTS Assay for Inhibitors of Bacillus subtilis Sfp phosphopantetheinyl transferase (PPTase) | Biochemical Sfp PPTase activity, qHTS | AID 1490, 2009 | actives 3.5% (n = 310,000) | Potency, µM, for inactives: max response, negative = inhibition, actives largely listed as inhibitors; active = well fitted inhibition curve with a large enough effect; inconclusive = small, poorly fitted or top-dose-only effect, or another doubt; inactive = no such curve, though single readings can be large or run the other way;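 note: the enzyme is Sfp with the accession as filed and its product quenches rhodamine fluorescence; potency is the fitted concentration of half-maximal effect; 0% = enzyme reaction without inhibitor and -100% = no enzyme wells; top concentration of the series not given in the record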
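Buffer: 50 mM Hepes-Na pH 7.6, 10 mM MgCl2, 0.01% Nonidet P-40, 0.01% BSA. Enzyme 15 nM, pre-exposed to compound 15 min; substrates then added and fluorescence change tracked over 30 min.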
gsp agonist: qHTS for Agonist of gsp, the Etiologic Mutation Responsible for Fibrous Dysplasia/McCune-Albright Syndrome: qHTS; gsp mutant cells, cAMP HTRF, 30 min; control for the full effect not named in the record; Potency, µM (series often up to 76.9 µM), for inactives: top-dose activation (cAMP increase), most hits filed as activators; actives 0.13% (n = 340,000); active = well fitted activation curve with a large enough effect; inconclusive = small, poorly fitted or top-dose-only effect, or another doubt; inactive = no such curve, though single readings can be large or run the other way; cell line not stated here;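 note: phosphodiesterase inhibitor Ro 20-1724 added with compounds to block cAMP breakdown; potency is the fitted concentration of half-maximal effect; nearly all actives have a fitted effect of over 60% in size; about a fifth of the inactives were tested at one dose only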
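Cells in DMEM/10% FBS with G418 were pretreated with compounds in DMSO plus […] (300 uM stock) for 30 min at 37C. cAMP was measured by HTRF (cAMP-d2 plus anti-cAMP antibody-K) after 30 min at room temperature.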
* = called active by the depositor; ? = inconclusive; . = no result given; & = joins results of further samples; [ ] = dose if it differs, or a comment.

canonical_smiles | Menin-MLL FL inh | TRPV1 PAM | TRPML1 blocker | ClpP mod | gsp antagonist | Sfp inh | gsp agonist
Cc1sc2nc(C(C)Sc3n[nH]c(N)n3)[nH]c(=O)c2c1C (stereo not given) | 10.6 | -3.5 | . | . | . | 56.2µM* | .
COc1ccc(-c2cnn3c4c(c(C)nc23)CCN4C(C)C)cc1OC | -2.2 | 6.5 | -9.8 | 5.3% | -1.9% | -10.2% | 2.9%
Cc1noc(C)c1NC(=O)N(C)C[C@H]1Oc2ccc(NS(=O)(=O)c3c(C)noc3C)cc2C(=O)N([C@H](C)CO)C[C@@H]1C | . | . | 2.4 | -5.6% | 2.2% | . | -64.8%[inhibitor]
COc1ccccc1-n1c(=O)[nH]c2c(C(N)=O)nc(C3CCCCC3)nc21 | 2.3 | -15.0 | -3.6 | 5.0% | -3.0% | -1.0% | -25.4%
O=C(/C=C/c1ccco1)Nc1ccc(-c2nc3ccccc3[nH]2)cc1 | 2.7 | 3.8 | -6.2 | -0.8% | 11.1% | -20.8% | -1.3%
Cc1ccc(SCC(=O)N2CCC(C(N)=O)CC2)cc1 | -0.8 | 8.8 | -1.2 | . | 7.3% | 23.5% | 0.0%[15.4 µM]
Cc1ccccc1N(C(=O)CCC(=O)Nc1ccccn1)C(C(=O)NC(C)C)c1ccc(O)cc1 (stereo not given) | 4.8 | -0.5 | 9.6 | -0.6% | 9.3% | 3.3% | ?
C/C(=N\Nc1ccc(C(F)(F)F)cc1[N+](=O)[O-])C(C)C | -0.8 | -8.3 | 4.4 | -2.3% | 5.8% | 2.5% | ?
CCCCC(=O)Nc1ccc(NC(=O)c2cc(OC)c(OC)c(OC)c2)cn1 | 0.4 | 2.6 | -12.6 | -3.1% | 0.1% | 17.5% | 2.3%
CCOc1ccc(-n2c(=O)[nH]cc(C(=O)N3CCCc4ccccc43)c2=O)cc1 | 0.7 | 9.2 | -6.7 | 0.8% | 3.4% | 6.3% | -24.4%

Not a retest: 2 of the compounds above.
canonical_smiles | Menin-MLL FL inh | TRPV1 PAM | TRPML1 blocker | ClpP mod | gsp antagonist | Sfp inh | gsp agonist
Cc1noc(C)c1NC(=O)N(C)C[C@H]1Oc2ccc(NS(=O)(=O)c3c(C)noc3C)cc2C(=O)N([C@H](C)CO)C[C@@H]1C | . | . | 2.4 | -5.6% | 2.2% | . | -64.8%[inhibitor]
COc1ccccc1-n1c(=O)[nH]c2c(C(N)=O)nc(C3CCCCC3)nc21 | 2.3 | -15.0 | -3.6 | 5.0% | -3.0% | -1.0% | -25.4%

Continued.
canonical_smiles | Menin-MLL FL inh | TRPV1 PAM | TRPML1 blocker | ClpP mod | gsp antagonist | Sfp inh | gsp agonist
COc1cc(NC(=O)CCNC(=O)Cn2cnc3sc4c(c3c2=O)CCCC4)cc(OC)c1OC | -4.5 | 10.2 | 9.1 | . | 8.1% | -10.0% | -0.2%[15.4 µM]
c1ccc(-n2nnnc2SCc2cccc3nsnc23)cc1 | -1.5 | 8.8 | -10.1 | -5.3% | 0.6% | 6.6% | -3.5%
COc1ccc(OC)c(Nc2nc(-c3ccccc3O)nc3ccccc23)c1 | 3.5 | -0.2 | 7.5 | . | 12.7% | 17.9% | 1.4%[15.4 µM]
CCc1nn(CC(=O)N(C)C2CCCCC2)c(=O)c2cc3cc(C)ccc3n12 | . | 13.0 | -16.3 | -6.2% | 14.3% | 14.1% | 11.4%
NS(=O)(=O)c1cccc(NC(=O)COC(=O)C2(c3cccc(F)c3)CCCC2)c1 | 4.8 | -23.6 | -6.3 | -2.7% | -9.3% | 8.4% | -30.3%[inhibitor]
COc1ccc(Cn2c(C3CC3)nc3ccc(NC(=O)C4CC4)cc3c2=O)cc1 | 4.4 | -4.1 | -6.0 | ? | -12.3% | -2.1% | -23.5%
Cc1cccc(CN2CCOCCS2(=O)=O)c1 | 0.4 | 2.6 | 1.1 | -2.2% | 9.3% | 22.9% | 54.0%
NC1=NC(=O)C2(COC(c3cccnc3)OC2)S1 (stereo not given) | -1.9 | 1.1 | -4.6 | . | . | 22.2% | -2.6%[15.4 µM]
CCc1ccc(N2CC(C(=O)N3CCCC3)CC2=O)cc1 (stereo not given) | -3.2 | 5.4 | 14.2 | . | 8.9% | 9.4% | 20.3%[15.4 µM]
CN1CCN(c2nc(NCCOC34CC5CC(CC(C5)C3)C4)nc(OCC(F)(F)F)n2)CC1 | 8.8 | -4.2 | 0.9 | -2.0% | 5.2% | -3.4% | 12.1%[15.4 µM]
COc1ccc(N2CCC(CNC(=O)Nc3ccc(C)c(C)c3)C2)cc1 (stereo not given) | 3.0 | -21.7 | 2.6 | -1.7% | -3.1% | -18.9% | -22.4%
CCOC(=O)c1[nH]c(C)c(C(=O)OCC(=O)NC(C)c2ccc(F)cc2)c1C (stereo not given) | . | -0.7 | -2.7 | 5.8% | -2.0% | . | 12.5%
COc1cc(OC)c(C2C(C(=O)O)c3ccccc3C(=O)N2C)cc1OC (stereo not given) | -0.8 | 12.4 | -12.2 | -0.3% | -1.5% | -14.0% | -13.1%
CCOC(=O)N1CCN(S(=O)(=O)c2ccc(C)cc2)C1c1ccc(OC)cc1 (stereo not given) | 5.9 | -9.7 | 7.4 | 1.7% | -6.9% | 3.6% | -1.5%
CCCCSc1nc2c(=O)[nH][nH]c(=O)c2n1Cc1ccccc1 | -0.6 | -7.6 | 4.3 | -1.0% | -19.5% | 21.2% | 3.6%
O=C(c1ccc(Cl)cc1)N(Cc1ccc(Br)cc1)N1C(=O)CCC1=O | 3.2 | -20.6 | 46.5 | 2.1% | -11.6% | -15.9% | 4.8%[15.4 µM]
Cc1cc(C(=O)COc2cccnc2[N+](=O)[O-])c(C)n1-c1ccccc1 | -0.3 | -3.3 | 23.8 | -0.7% | 5.3% | -22.2% | 1.7%[15.4 µM]
CCN(CC(=O)Nc1ccc2c(c1)OCCO2)C(=O)c1cccc(OCC(C)C)c1 | . | 13.5 | 28.9 | -1.2% | -6.7% | 5.8% | 2.5%[15.4 µM]
Cc1ccc(OCC(=O)Nc2ccc(CN3CCOCC3)cc2)cc1C | 1.0 | -27.8 | -8.1 | 0.5% | 1.6% | 14.5% | -59.6%[15.4 µM]
Cc1ccc(C(C)(C)C)c(OCCOCCN2CCCC2)c1 | 0.1 | 5.4 | 29.3 | -0.5% | 21.0% | -4.9% | 41.0%
O=C(NCc1ccco1)c1ccc(-c2ccccc2Cl)o1 | -2.1 | -6.4 | -1.3 | . | -18.6% | -14.0% | 9.0%[15.4 µM]
COc1cccc(OC)c1C(=O)OCC(=O)NCCCc1ccccc1 | -1.3 | -18.2 | 38.1 | -3.2% | -0.6% | -0.5% | -13.1%
COc1cccc2cc(C(=O)C3=C(O)C(=O)N(CCN4CCOCC4)C3c3cccs3)oc12 (stereo not given) | 12.4 | 2.4 | 10.3 | -3.2% | 2.0% | -24.0% | ?
Cc1c(NC(=O)CSc2nnc(-c3cccnc3)n2N)c(=O)n(-c2ccccc2)n1C | . | -4.4 | -1.2 | 0.9% | 4.4% | . | -9.0%
CCN(CC)S(=O)(=O)c1ccc(Cl)c(NC2=NCCCCC2)c1 | -4.7 | -2.3 | 3.0 | . | 2.5% | 4.8% | 7.2%
Cc1ccc(-c2csc3ncnc(NS(=O)(=O)c4ccc(Cl)cc4)c23)cc1 | -0.2 | 8.3 | -0.3 | -3.8% | -2.2% | 23.1% | -42.2%[inhibitor]
Cc1ccc(S(=O)(=O)NCCC(=O)Nc2ccc(C)cc2C(=O)c2ccccc2)cc1 | -1.6 | -10.1 | -6.6 | -0.6% | -6.8% | -3.2% | -1.4%[15.4 µM]
COc1ccc(C(=O)NCC(=O)N/N=C/c2cccnc2)cc1 | 3.4 | -4.7 | -5.5 | -0.7% | 12.4% | 1.1% | 15.8%
COCCN(CCOC)C(=O)Nc1ccc(Cl)cc1 | 4.3 | -6.1 | 4.0 | . | -19.3% | 15.4% | -0.3%[15.4 µM]
COc1cc2cncc(Cc3ccc(Cl)cc3)c2cc1OC | . | -12.1 | 51.0 | -4.0% | 10.3% | . | 2.0%
Oc1ccc(Cl)c2cccnc12 | 2.7&1.1 | . | -2.5 | -2.8% | 5.7% | 27.8%&15.1% | 7.9%
CCN(CC)C(=O)Oc1ccc(Br)cc1C(=O)Nc1ccc(F)c(Cl)c1 | 0.4 | -11.8 | 19.7 | 16.0% | -2.2% | -3.4% | -7.7%[15.4 µM]
O=c1c2ccccc2n2nnnc2n1-c1ccccc1 | 2.2 | 10.0 | -11.9 | 2.1% | 8.8% | 1.6% | -2.4%
Cc1ccc(N(CCCCN2C(=O)c3ccccc3C2=O)C(=O)c2cccs2)cc1 | -2.2 | 1.0 | 2.9 | -0.5% | ? | 14.0% | -1.2%
COc1ccc(C)cc1N(CC(=O)NC(C)c1ccccc1)S(C)(=O)=O (stereo not given) | -1.6 | 4.3 | 5.4 | 0.9% | 0.8% | 4.5% | -35.6%[inhibitor]
O=C(NCc1ccc(F)cc1)N[C@@H](Cc1ccccc1)C(=O)O | 2.9 | ? | 5.0 | -0.4% | 10.6% | 2.4% | -40.3%
O=C(NCCc1ccc(Cl)cc1)c1ccc2nc(N3CCOCC3)sc2c1 | -3.9 | -12.5 | 18.7 | -6.8% | 5.5% | 3.5% | 9.5%
COc1ccccc1OCCOCCN1CCCC1 | -3.5 | 12.0 | -9.6 | -0.7% | -5.2% | -21.2% | ?
O=C(CSc1nc(N2CCCCC2)nc(N2CCCCC2)n1)N1CCN(c2ccccc2)CC1 | 2.3 | 6.8 | 7.6 | 12.0% | -5.0% | -5.2% | -1.7%
Cc1c(N2CCCCC2)[nH]c2ccccc12 | . | . | -2.6 | -1.9% | . | . | -23.1%
